Compound activity (PubChem)
ALR H2O2 inh = human ALR oxidase inhibition via reduced H2O2 | inhibition, % (concentration not given with the values) | 3.8% of 290,000 active | P55789 | purified ALR, DTT oxidation, H2O2 HRP-luminol luminescence;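 active = mean and each replicate at 75% or more; inconclusive = only one of the two met; inactive = neither met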;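 note: stock transfer was 7.5 nL into about 7.5 µL; 0% = neutral wells and 100% = wells with inactivated enzyme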
Target sequence (P55789 whole entry, looked up): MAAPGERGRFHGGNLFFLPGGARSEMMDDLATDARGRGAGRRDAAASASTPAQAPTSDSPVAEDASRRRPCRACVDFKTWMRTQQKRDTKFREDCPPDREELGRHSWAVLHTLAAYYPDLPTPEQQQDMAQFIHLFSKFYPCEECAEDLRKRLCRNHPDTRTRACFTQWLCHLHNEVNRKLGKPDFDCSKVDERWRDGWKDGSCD
RanGTP-Imp inh = disruptors of Ran-importin-beta complex formation – biochemical, FRET, CFP-Ran, YFP-importin-beta, homogeneous, primary screen | cell-free CFP-Ran/YFP-importin-beta FRET ratio | inhibition, % (concentration not given with the values) | 1.1% of 300,000 active;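 active = most replicates above 15%; inconclusive = exactly half above 15%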;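 note: 0% = DMSO wells and 100% = Ran loaded with GDP instead of GTP; wells of about 40 µL received 100 nL stock; the first replicate is given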
LANA-H2B inh = blocks KSHV LANA binding to histone H2A/H2B. Q9QR71. cell-free LANA-H2A/H2B peptide, fluorescence polarization. inhibition, % (no concentration beside the values). 0.6% of 320,000 active. AID 2629; in the data active = inhibition mostly above about 10%, no sharp cut-off; inactive = mostly below about 6.7%;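 note: stock transfer was 7.5 nL into about 10 µL; 0% = median of vehicle wells and 100% = median of positive control wells; one replicate is shown; the record names a cut of 25% in any replicate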
B2AR ag = agonists of human beta-2 adrenergic receptor inducing internalization; response, % (no concentration beside the values); P07550; AID 504454; 0.43% of 340,000 active; Am2.2-beta2AR cells, FAP receptor internalization, flow cytometry; reference of the scale not given here;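 active = response above a set limit, near 3 SD of response in nonfluorescent compounds, cut at about 42% in these data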;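 note: stock transfer was 100 nL into about 11 µL; a reference agonist was the positive control; negative values mostly stem from fluorescent compounds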
Target sequence (P07550 whole entry, looked up): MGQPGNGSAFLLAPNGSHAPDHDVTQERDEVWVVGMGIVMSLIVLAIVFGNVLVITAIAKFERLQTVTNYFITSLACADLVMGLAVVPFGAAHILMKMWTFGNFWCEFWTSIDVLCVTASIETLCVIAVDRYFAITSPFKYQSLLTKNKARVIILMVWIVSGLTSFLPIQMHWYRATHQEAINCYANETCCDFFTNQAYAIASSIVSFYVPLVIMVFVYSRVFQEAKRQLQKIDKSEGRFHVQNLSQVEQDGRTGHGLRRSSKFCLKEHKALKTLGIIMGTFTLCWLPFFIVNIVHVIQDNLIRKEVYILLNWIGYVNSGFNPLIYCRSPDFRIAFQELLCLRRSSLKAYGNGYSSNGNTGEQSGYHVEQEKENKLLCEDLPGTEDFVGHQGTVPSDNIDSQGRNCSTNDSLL
Calb FLC = C. albicans growth modulation with fluconazole | growth inhibition, % (test concentration not listed) | 0.57% of 300,000 active | C. albicans CaCi-2 (fluconazole-resistant clinical isolate) + fluconazole, Alamar Blue growth, 48 h | AID 1979;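 active = most replicates above 75%; inconclusive = exactly half above 75%; inactive = most below 75%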;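 note: all wells also contain fluconazole at 8 µg/ml as a sub-toxic cotreatment; 0% = median of DMSO wells and 100% = median of geldanamycin control wells; wells of about 8 µL received 7.5 nL stock; the first replicate is given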
HNF4A DNA FP = change in binding of human HNF4 alpha to DNA. activity change, % at 10 µM. 0.3% of 360,000 active. HNF4a-FITC DNA binding, fluorescence polarization, 1 h. P41235; in the data active = activity change above about 30%, passing the limit was not always enough;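 note: controls were the assay level and a saturating level of protein; the project sought stronger binding though the title names inhibitors; some compounds called inactive have numbers as strong as hits; positive values seem to mean higher polarization but the record does not say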
Target sequence (P41235 whole entry, looked up): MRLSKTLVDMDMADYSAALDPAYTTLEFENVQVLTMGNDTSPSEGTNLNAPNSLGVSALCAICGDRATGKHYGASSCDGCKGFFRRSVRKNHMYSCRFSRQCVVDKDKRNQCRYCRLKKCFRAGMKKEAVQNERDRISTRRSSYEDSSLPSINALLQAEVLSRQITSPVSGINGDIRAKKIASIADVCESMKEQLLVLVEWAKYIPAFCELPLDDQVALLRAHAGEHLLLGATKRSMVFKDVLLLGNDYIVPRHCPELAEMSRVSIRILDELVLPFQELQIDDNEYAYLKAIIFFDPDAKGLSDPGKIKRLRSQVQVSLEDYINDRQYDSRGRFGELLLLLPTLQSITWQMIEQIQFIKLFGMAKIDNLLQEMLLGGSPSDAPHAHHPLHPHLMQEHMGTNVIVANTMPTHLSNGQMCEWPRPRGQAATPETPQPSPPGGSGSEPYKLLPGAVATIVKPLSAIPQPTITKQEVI
Vif TR-FRET = HIV-1 Vif–A3G interaction blockers – biochemical, TR-FRET, GST-Vif 1-94, biotin-A3G peptide, dose response retest, primary screen (AID 1117319); 0.57% of 260,000 active; inhibition, %, or IC50 in µM where a hit was titrated; TR-FRET GST-Vif / biotin-A3G peptide binding; higher % means a stronger effect; test concentration not given here; strong numbers were not always called active;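 active = above the screen mean plus three standard deviations and confirmed in dose response; inconclusive = results disagree or hit not tested in dose response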;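 note: Vif residues 1-94 fused to GST binding biotinylated APOBEC3G peptide 110-148; 0% = full assay without inhibitor and 100% = GST in place of GST-Vif; retest series ran down from 100 µM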
* = called active by the depositor; ? = inconclusive; . = not tested or not shown.

SMILES	ALR H2O2 inh	RanGTP-Imp inh	LANA-H2B inh	B2AR ag	Calb FLC	HNF4A DNA FP	Vif TR-FRET
C[C@H](NC(=O)c1nc[nH]c1C(=O)N1CCc2ccccc2C1)c1ccccc1	1	.	-11	1	.	-3.4	.
COc1cccc(-c2cc(C(F)(F)F)c3c(N)c(C#N)sc3n2)c1	1	-29	4.0	.	11	.	12%
O=C(NC(=S)Nc1ccccc1OC(F)F)c1ccc2c(c1)OCO2	-5	.	-4.7	-5	.	-4.1	.
CCOC(=O)N1CCN(C(=O)c2ccc3c(=O)n(-c4ccc(OC)cc4OC)c(=S)[nH]c3c2)CC1	-8	-5.9	2.2	0	-3	-0.6	-9%
CCOC(=O)c1c(NC(=O)CSc2nnc(-c3cccnc3)o2)sc(C(C)=O)c1C	.	0.9	2.1	-1	-11	8.4	-3%
Cc1ccc(OCC(=O)Nc2cccc(-c3nnc(-c4ccccc4)o3)c2)c(C)c1	2	?	-2.1	13	-19	-6.1	9%
COc1ccc(CNc2nc(NCc3ccc(OC)cc3)n(C(=O)c3ccccc3[N+](=O)[O-])n2)cc1	-10	7.0	3.5	-7	12	2.9	3%
CCCn1c(SCC(=O)NCCc2ccccc2)nnc1-c1ccccn1	-7	0.9	-2.1	-36	10	1.2	-5%
O=C(C1CC=CCC1)N1CCC(CO)(Cc2ccc(Cl)cc2)CC1 (centres undefined)	-13	1.2	-1.3	-5	-1	3.7	4%
N#CC1=C(N)Oc2n[nH]c(-c3ccccc3)c2C1c1ccsc1 (centres undefined)	20	-3.0	3.9	29	-3	-3.8	9%
COc1ccc(C(=O)CSc2ccc(-c3ccc(C)cc3)nn2)cc1	-10	-3.4	0.9	5	1	6.0	.
CCCc1nnc(NC(=O)c2cc3ccccc3o2)s1	-4	6.7	1.3	-4	-3	0.5	2%
COc1cc(C(=O)Nc2ccccc2-c2nnn(CC(N)=O)n2)cc(OC)c1OC	-4	0.2	1.6	-2	3	1.5	2%
C=CCNC(=O)C1CC(=O)N(c2ccc(OCC(=O)Nc3ccc(Cl)c(C(F)(F)F)c3)cc2)C1 (centres undefined)	.	-2.2	-9.1	-4	-25	0.5	4%
C#CCOCCOCCOCCNc1nc(N2CCN(C(=O)C([C@@H](C)CC)n3cc(C(N)COC(=O)C(F)(F)F)nn3)CC2)nc(N2CCN(C(=O)[C@H](Cc3cc4ccccc4[nH]3)n3cc(C(N)CO)nn3)CC2)n1 (some centres undefined)	-32	-1.5	-0.7	.	13	.	.
COc1cccc(OCc2cc(C(=O)N3CCN(C(C)=O)CC3)no2)c1	2	4.1	-1.3	-2	11	-8.3	.
CCOC(=O)N1CCC(N(CCOC)C(=O)Nc2ccc(CC)cc2)CC1	-10	-5.3	-6.8	-2	?	-3.3	4%
CCCC(c1nnnn1CS(=O)(=O)c1ccc(C)cc1)N1CCN(CC)CC1 (centres undefined)	.	5.0	2.4	0	15	0.0	.
CCCOC(=O)Nc1c(C)cccc1C(C)C	-5	-1.6	-5.6	-5	-6	-1.3	-6%
COc1ccc(NC(=O)CSc2ccccc2)cn1	-38	-2.9	6.2	4	-36	-4.1	18%
Cc1ccc(-n2c(C)nnc2SCC(=O)N2CCc3ccccc3C2)cc1C	.	-1.8	1.7	1	28	-0.9	20%
COc1ccc(NC(=O)CSc2nc3[nH]ncc3c(=O)n2-c2ccccc2C)cc1OC	-12	1.7	-1.6	0	35	-0.5	18%
COc1ccc(NC(=O)CS(=O)(=O)c2ccccc2Cl)cc1	.	1.3	-3.1	-6	-2	5.1	-2%
CC1=C(C(=O)N2CCOCC2)C(c2ccc(C)cc2)NC(=S)N1 (centres undefined)	-3	.	5.2	-12	.	3.4	9%
COc1ccc(CCNC(=O)COC(=O)c2cnc(C)cn2)cc1OC	-5	2.8	-3.2	2	-8	-0.1	1%
N#Cc1c(SCc2ccccc2)nc(N2CCOCC2)c2c1CCCC2	-2	.	1.9	8	.	2.9	24%
CC(C)COC(=O)c1cc(-c2ccc(/C=N/n3cnnc3)o2)ccc1Cl	48	-1.1	4.8	-5	6	4.4	13%
Cc1csc(=O)n1CC(=O)Nc1ccc(S(C)(=O)=O)cc1	3	.	0.5	1	.	1.3	-1%
Cc1ccc(CNC(=O)C2CC(=O)N(CCC(C)C)C2)cc1 (centres undefined)	-4	-3.1	-1.0	7	-17	3.0	9%
CN1C(=O)/C(=C\c2cc(N=Nc3ccccc3)ccc2O)SC1=S	1	-1.2	-3.5	11	-12	1.7	6%
COc1ccc(C2=NOC(C(=O)NCc3ccccn3)C2)cc1OC (centres undefined)	-15	3.4	-3.6	-3	-12	4.5	0%
CCC(NC(=O)NCc1cccnc1)(C(F)(F)F)C(F)(F)F	.	1.4	1.2	1	-5	-1.7	2%
Cc1ccc(NC(=O)c2cc(C)nc3ccccc23)c(C)c1	-14	2.5	-2.7	4	-6	2.9	.
C=CCc1ccc(OCC(O)CN2CCc3ccccc3C2)c(OC)c1 (centres undefined)	-1	5.3	0.2	-4	-27	1.8	1%
O=C1OC(CC(=O)N(Cc2nnc(-c3ccc(Cl)cc3)o2)C2CC2)c2ccccc21 (centres undefined)	-5	.	7.5	-3	.	2.0	0%
CCOC(=O)c1ccc2nc(C)c(C)nc2c1	.	-1.2	-2.6	8	-2	5.7	-2%
N#CCCn1cc(C(=O)Nc2ccc(C(=O)O)cc2)c(-c2cc3ccccc3o2)n1	-2	-4.8	-2.6	-14	8	-3.7	12%
CCCNc1nc2c(c(=O)[nH]c(=O)n2C)n1Cc1ccc(F)cc1	9	-1.1	2.2	0	-1	2.6	-7%
Cc1cccc(NC(=S)NCc2cccs2)c1	-2	-2.1	-1.5	1	-29	3.8	.
COc1ccc(N2C(=O)C3CCCN3C2c2cccc(F)c2)cc1Cl (centres undefined)	.	-2.2	1.2	-9	-9	3.2	22%

An excerpt of these results, with values under each structure.
Each structure is followed by: ALR H2O2 inh, RanGTP-Imp inh, LANA-H2B inh, B2AR ag, Calb FLC, HNF4A DNA FP, Vif TR-FRET
CCCn1c(SCC(=O)NCCc2ccccc2)nnc1-c1ccccn1
  -7, 0.9, -2.1, -36, 10, 1.2, -5%
O=C(C1CC=CCC1)N1CCC(CO)(Cc2ccc(Cl)cc2)CC1 (centres undefined)
  -13, 1.2, -1.3, -5, -1, 3.7, 4%
N#CC1=C(N)Oc2n[nH]c(-c3ccccc3)c2C1c1ccsc1 (centres undefined)
  20, -3.0, 3.9, 29, -3, -3.8, 9%
COc1ccc(C(=O)CSc2ccc(-c3ccc(C)cc3)nn2)cc1
  -10, -3.4, 0.9, 5, 1, 6.0, .
CCCc1nnc(NC(=O)c2cc3ccccc3o2)s1
  -4, 6.7, 1.3, -4, -3, 0.5, 2%
COc1cc(C(=O)Nc2ccccc2-c2nnn(CC(N)=O)n2)cc(OC)c1OC
  -4, 0.2, 1.6, -2, 3, 1.5, 2%
C=CCNC(=O)C1CC(=O)N(c2ccc(OCC(=O)Nc3ccc(Cl)c(C(F)(F)F)c3)cc2)C1 (centres undefined)
  ., -2.2, -9.1, -4, -25, 0.5, 4%

More results:
SMILES	ALR H2O2 inh	RanGTP-Imp inh	LANA-H2B inh	B2AR ag	Calb FLC	HNF4A DNA FP	Vif TR-FRET
Cc1ccc(S(=O)(=O)NCCN2CCNC2=O)cc1	-4	0.2	1.3	4	-4	-1.3	-3%
CCC(C(=O)N1CCOCC1)n1c(C(=O)OC)cc2occc21 (centres undefined)	-6	-3.4	1.4	-10	17	0.8	1%
COc1cc(C(=O)O)nc2ccc([N+](=O)[O-])cc12	-43	0.7	0.0	7	-5	-1.6	-3%
Cc1ccc(NC(=O)C2CCCN2S(=O)(=O)c2ccc(-c3ccc(=O)[nH]n3)s2)c(C)c1 (centres undefined)	11	-2.6	-4.4	3	-1	3.5	-1%
COc1ccccc1NC(=O)CCCC(=O)OC(C)C(=O)c1ccccc1 (centres undefined)	.	1.0	4.3	6	-4	-2.6	.
CC(C)(C)N(Cc1ccccc1)C(=O)COC(=O)c1cccc([N+](=O)[O-])c1	-6	-2.0	-2.5	-1	10	-0.1	6%
CNc1c([N+](=O)[O-])cnn1-c1ccc(F)cc1	2	0.2	13	-2	-18	0.0	7%
O=C(CCc1nc2ccccc2c(=O)[nH]1)N1CCN(S(=O)(=O)c2ccccc2Br)CC1	-2	-1.3	1.3	13	5	-0.7	0%
O=C(CNC(=O)c1ccco1)OCc1ccc(Cl)cc1	0	2.1	-1.5	-4	2	4.6	3%
Nc1nnnn1/N=C/c1cccc(Br)c1	-2	2.8	2.9	-6	1	-3.7	.
COC(=O)c1cc(COC(=O)CNC(=O)c2cccc(C)c2)oc1C	1	.	-0.4	2	.	0.5	-7%
COC(=O)CNC(c1ccccc1)c1cc(Br)ccc1NS(=O)(=O)c1ccccc1 (centres undefined)	0	1.9	3.1	1	-5	-1.1	.
COc1cc(C(=O)N/N=C/c2ccc3c(c2)c2ccccc2n3C)ccc1O	100*	0.1	-1.0	12	-6	0.0	-10%
CCC(C)(C)NC(=O)C(c1ccccc1Cl)N(Cc1cccnc1)C(=O)CCC(=O)Nc1cc(C)on1 (centres undefined)	-2	-4.3	-5.2	5	-6	-0.9	.
CCN(CC(=O)NCCc1ccc(S(N)(=O)=O)cc1)Cc1nc2ccccc2c(=O)[nH]1	-6	-2.5	1.5	10	16	1.8	-1%
CCC1(C)NC(=O)N(/N=C/c2ccc(C)s2)C1=O (centres undefined)	26	2.8	-4.2	-2	-4	0.4	-2%
Brc1ccccc1-c1csnn1	-3	-2.3	1.7	-6	-3	0.6	-1%
COc1ccc(NC(=O)N2CCC(n3cnc4ccccc43)CC2)cc1	-15	4.4	-1.3	9	7	1.3	?
CCCc1cc(C(=O)OC)c(NC(=O)CCC(=O)O)s1	-5	4.4	3.0	2	30	-0.1	3%
CC(=O)Nc1ccc(SCCCC(=O)c2ccccc2)cc1	34	2.8	-4.1	0	-14	-1.4	-4%
CC(C(=O)NCC1CCCCC1)N(C)Cc1ccc(Br)cc1 (centres undefined)	7	5.0	1.1	-8	-12	1.6	66%
CC(C)OCCCNS(=O)(=O)c1ccc2c(c1)oc(=O)n2C	99*	-11	6.1	1	4	2.4	14%
COCCN(C(=O)CSc1cc(C)c2ccccc2n1)c1c(N)n(CC(C)C)c(=O)[nH]c1=O	-1	.	-0.1	3	.	0.2	-8%
CN(Cc1ccc(F)cc1)C(=O)c1cccc(S(=O)(=O)N2CCN(c3ccccc3)CC2)c1	1	-2.9	1.7	9	5	0.7	5%
ClC1(Cl)CC1CSc1ncn[nH]1 (centres undefined)	.	3.5	.	-2	-16	-5.0	.
CC(C)Cn1c(SCC(=O)N2CCN(S(=O)(=O)c3ccccc3)CC2)nc2ccccc21	-12	0.1	-1.5	12	5	-0.1	21%
COCCn1c(/C=C/c2ccccc2)nc2ccccc21	2	4.4	-127*	5	4	4.2	-7%
COC(=O)c1c(NC(=O)Cc2cccs2)sc2c1CCC(C)C2 (centres undefined)	-7	5.9	4.2	2	-8	0.5	26%
COC(=O)COc1ccc2c(=O)c(Oc3ccccc3Br)coc2c1	-12	-3.6	-0.9	-1	4	2.7	5%
Cc1ccc(CNc2ccc(N3CCOCC3)cc2)s1	.	-1.0	2.4	9	-2	0.3	?
COc1ccc(NC(=O)COc2ccccc2Cc2ccccc2)cc1S(=O)(=O)N1CCOCC1	.	.	.	-14	.	13	-10%
O=C(CSc1nc2c(c(=O)n1-c1ccc(Cl)cc1)SCC2)Nc1nccs1	-27	.	0.3	-2	.	-3.8	-8%
Cc1ccc(/C=N/NC(=S)NCCc2ccccc2)s1	1	-1.8	3.0	3	-20	-0.8	-10%
